From PubChem BioAssay
Menin-MLL FL inh – menin-MLL binding inhibition, fluorescein peptide. Fluorescence polarization, fluorescein-MLL peptide displacement from menin. 290,000 tested, under 10 active. FP activity change, % at 61.4 µM; inconclusive = falling polarisation curve, or a change in total fluorescence; inactive = total fluorescence flat and polarisation flat or rising; no compound was filed as active; the % refers to the polarisation; negative = inhibition;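 also: % of control where 0% means no effect; inhibitors lower the polarisation; unlabelled MLL peptide was the positive control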
Sfp inh – blocks B. subtilis Sfp PPTase activity; 3.5% of 310,000 active; Biochemical Sfp PPTase activity, qHTS; Potency, µM, for the others: max response, negative = inhibition, hits mostly inhibitors; Q9F4F7; AID 1490; active = well fitted inhibition curve with a large enough effect; inconclusive = small, poorly fitted or top-dose-only effect, or another doubt; inactive = no such curve, though single readings can be large or run the other way;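 also: the enzyme is Sfp with the accession as filed and its product quenches rhodamine fluorescence; potency is read from the fitted curve at half-maximal effect; 0% = enzyme reaction without inhibitor and -100% = no enzyme wells; top concentration of the series not given in the record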
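With Hepes-Na pH 7.6 buffer containing 10 mM MgCl2, Sfp (15 nM) modified BHQ-2-YbbR (12.5 uM) using rhodamine-CoA (5 uM). Two reads 30 minutes apart at 525/598 nm yielded each well's rate.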
gsp antag – gsp mutant antagonism; gsp-mutant cells, cAMP HTRF, 30 min; control for the full effect not named in the record; Potency, µM (highest dose often 76.9 µM), for inactives: at the top dose activity change, negative = inhibition, most hits filed as inhibitors; 0.4% of 340,000 active; active = falling curve of any shape with a large fitted effect; inconclusive = falling curve, mostly with a smaller effect; inactive = flat or rising curve; cell line not stated here;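 also: intracellular cAMP measured with PDE inhibitor Ro 20-1724 present during compound exposure; potency is read from the fitted curve at half-maximal effect; % is scaled to controls: 0 for no effect and ±100 for the full control effect; nearly all actives have a fitted effect of over 65% in size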
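G418-selected cells were plated in DMEM/10% FBS for 16-24 h at 37C, then treated with compounds plus the PDE inhibitor […] (300 uM solution added) for 30 min at 37C. Intracellular cAMP was measured by HTRF after 30 min lysis at room temperature.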
TRPV1 potentiator – potentiators of human vanilloid receptor 1 (TRPV1); AID 540277; Q8NER1; TRPV1-expressing cells, Fluo-8 calcium influx, capsaicin EC20 potentiation; host cell line not named in the record; control for the full effect not named in the record; potentiation, % at 8.33 µM; 0.02% of 320,000 active; active means potentiation above 80%; inconclusive means 30% to 80%; inactive means below 30%; also: 0% is about no effect
Target sequence (Q8NER1 whole entry, looked up): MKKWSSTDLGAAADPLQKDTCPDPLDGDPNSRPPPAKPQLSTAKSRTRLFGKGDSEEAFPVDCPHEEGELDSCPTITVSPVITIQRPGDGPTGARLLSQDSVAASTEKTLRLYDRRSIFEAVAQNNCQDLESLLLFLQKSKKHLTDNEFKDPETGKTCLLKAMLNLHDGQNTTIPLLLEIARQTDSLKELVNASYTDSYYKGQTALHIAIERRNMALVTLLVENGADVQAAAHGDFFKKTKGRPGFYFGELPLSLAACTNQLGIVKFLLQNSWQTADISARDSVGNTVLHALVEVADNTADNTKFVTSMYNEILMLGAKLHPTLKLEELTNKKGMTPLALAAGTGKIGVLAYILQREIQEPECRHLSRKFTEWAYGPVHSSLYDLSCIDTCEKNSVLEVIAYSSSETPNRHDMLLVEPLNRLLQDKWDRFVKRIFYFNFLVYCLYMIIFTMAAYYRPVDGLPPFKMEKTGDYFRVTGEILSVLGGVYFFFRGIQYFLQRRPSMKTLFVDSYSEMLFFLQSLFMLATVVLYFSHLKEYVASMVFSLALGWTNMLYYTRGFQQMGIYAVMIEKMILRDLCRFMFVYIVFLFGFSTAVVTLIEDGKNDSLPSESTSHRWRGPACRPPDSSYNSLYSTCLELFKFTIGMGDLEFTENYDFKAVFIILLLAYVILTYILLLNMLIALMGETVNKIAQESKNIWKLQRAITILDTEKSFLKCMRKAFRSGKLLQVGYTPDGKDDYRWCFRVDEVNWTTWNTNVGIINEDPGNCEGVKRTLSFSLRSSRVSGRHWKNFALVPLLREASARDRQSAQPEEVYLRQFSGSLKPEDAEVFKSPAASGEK
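Fluo-8 calcium influx in TRPV1-expressing cells, kinetic read (ex 480/em 520 nm). Compound added and read 3 min for agonist activity, followed by capsaicin at EC20 final and 2 min further read for enhancement.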
ClpP mod – qHTS Assay for Activators of ClpP | ATP-dependent Clp protease proteolytic subunit (Bacillus subtilis (strain 168)), P80244 | purified B. subtilis ClpP, FRET peptide cleavage, 20 min | Potency, µM (titrated, usually from 57.5 µM), for inactives: at the top dose activity change, negative = active | 1.9% of 340,000 active | AID 651965, 2013; active = well fitted falling curve with a large enough effect; inconclusive = small, poorly fitted or top-dose-only effect; inactive = no such curve, though single readings can be large or run the other way; also: potency is read from the fitted curve at half-maximal effect; the source files actives as falling curves though it sought activators and does not explain the sign; nearly all actives have a fitted effect of over 65% in size; many hits overshoot -100%
Target sequence (P80244 whole entry, looked up): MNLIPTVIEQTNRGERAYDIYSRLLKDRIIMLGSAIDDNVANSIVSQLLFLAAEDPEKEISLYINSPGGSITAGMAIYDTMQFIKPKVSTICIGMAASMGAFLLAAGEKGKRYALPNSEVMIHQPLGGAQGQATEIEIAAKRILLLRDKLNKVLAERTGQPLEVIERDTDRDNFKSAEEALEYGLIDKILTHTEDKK
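Purified B. subtilis ClpP, 10 microg/mL final in Tris/HCl pH8 with KCl, BSA, glycerol and Tween-20, cleaved an Abz/nitrotyrosine-quenched decapeptide. Fluorescence (ex 320, em 430) was read at 0 and 20 min at room temperature. Delta was normalized to 5.8 microM ADEP and DMSO/no-enzyme controls.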
TRPML1 blocker – inhibitors of human TRPML1 channel; activity change, negative = inhibition, % (concentration not given with the values); Q9GZU1; TRPML1-inducible cells, Ca2+ dye fluorescence, FDSS; hits give low values; inhibition of EC80 agonist-evoked calcium signal; AID 624415; 0.02% of 390,000 active; in the data active means activity change below about -50%; inconclusive means about -30% to -50%; inactive means above about -30%;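 also: stimulus is agonist 54-4 at its EC80 concentration; % is scaled to controls: 0 for no effect and ±100 for the full control effect; compound concentration not given in the record; the text of the record puts the active cut at -80%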
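TRPML1-DL cells, Tet-induced overnight (~16 h, 37 °C) at 1,500 cells/well, were loaded with Ca8 no-wash dye plus quencher for 45-90 min at room temperature. Compounds were pinned during FDSS kinetic reading; agonist 54-4 at EC80 (4 uM final) then added.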
gsp ag – gsp mutant agonism. gsp mutant cells, cAMP HTRF, 30 min; control for the full effect not named in the record. Potency, µM (titrated, usually from 76.9 µM), without a hit: at the top dose activation (cAMP increase), most hits filed as activators. 0.13% of 340,000 active; active = well fitted activation curve with a large enough effect; inconclusive = small, poorly fitted or top-dose-only effect, or another doubt; inactive = no such curve, though single readings can be large or run the other way; cell line not stated here;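 also: phosphodiesterase inhibitor Ro 20-1724 added with compounds to block cAMP breakdown; potency is read from the fitted curve at half-maximal effect; nearly all actives have a fitted effect of over 60% in size; about a fifth of the inactives were tested at one dose only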
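Cells stably selected in G418 were plated at 2000/well, grown 16-24 hr, then given compounds in DMSO with the PDE inhibitor […] (300 uM solution added) for 30 min at 37C; cAMP was read by HTRF.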
An asterisk follows results filed as active; u = inconclusive; x = not tested or not shown; & = joins results of further samples; [ ] = dose if it differs, or a comment.

SMILES	Menin-MLL FL inh	Sfp inh	gsp antag	TRPV1 potentiator	ClpP mod	TRPML1 blocker	gsp ag
COc1ccc(Cl)cc1NC(=O)CCNC(=O)OCc1ccccc1	1.8	17%	-2%	-18	1.2%	-15	8%
COC(/C=C/Nc1ccc(C)c(C)c1)=C(C#N)C#N	-1.8	16%	2%	-8	-3.0%	10	-20%
O=[N+]([O-])c1ccc(C2=NN(c3ccccc3)C(c3ccco3)C2)cc1 (stereo not drawn)	u	-21%	0%	x	u	4	0%[15.4 µM]
O=C(NCCS(=O)(=O)N1CCN(c2ccccc2F)CC1)c1c(F)cccc1F	x	x	1%	22	u	12	-64%[inhibitor]
O=C(OCc1cn([C@H]2CN(C(=O)c3cccs3)[C@@H](c3ccccc3)C[C@@H]2O)nn1)c1ccccc1	x	x	x	x	1.5%	-11	-2%
Cc1ccc(Nc2ncnc(Cl)c2N)cc1	x	x	-7%	x	0.9%	10	15%[15.4 µM]
Cc1ccc2c(c1)c(C)c(C)n2CC(O)Cn1nnc2ccccc21 (stereo not drawn)	2.0	0%	-10%	4	-4.6%	43	20%
Cc1c(C(=O)Nc2ccccc2F)sc2nc3n(c(=O)c12)CCC3	x	9%	-3%	0	u	-10&-2	u
Cc1cc(C)c(NC(=O)CCCCCNC2CCCCC2)c(C)c1	-1.1	12%	9%	19	x	2	0%
C#CCOCCOCCOCCNc1nc(N2CCN(C(=O)[C@H]([C@@H](C)CC)n3cc([C@@H](N)Cc4ccc(O)cc4)nn3)CC2)nc(N2CCN(C(=O)[C@H](Cc3ccc(O)cc3)n3cc([C@@H](N)CC(C)C)nn3)CC2)n1	-5.7	19%	1%	-1	-1.1%	4	20%
CC(C)COC(=O)N(C)C[C@@H]1OCc2cnnn2CCCC(=O)N([C@H](C)CO)C[C@H]1C	x	x	x	x	-2.3%	-8	27%
CCN1C(=O)C(CC(=O)Nc2ccccc2Cl)N(NC(=O)c2cccc(F)c2)C1=S (stereo not drawn)	x	19%	-23%	-2	2.6%	9	-51%[inhibitor]
OCC[C@H]1C[C@H](O)[C@@H](O)[C@@]2(Cc3ccccc3O2)O1	x	x	u	0	2.3%	1	-44%[inhibitor]
Cc1ccc(N2C(=O)CC(Cc3cccc(C)c3)C2=O)cc1 (stereo not drawn)	1.1	9%	9%	2	x	-27	13%
O=C(O)c1ccccc1SC1CC(=O)N(c2cccc3ccccc23)C1=O (stereo not drawn)	0.9	16µM*	12%	-1	x	-9	-4%[15.4 µM]
O=C(Nc1ccccc1NC(=O)c1c(F)c(F)c(F)c(F)c1F)c1c(F)c(F)c(F)c(F)c1F	9.5	15%	-27%	-9	2.1%	4	14%
COc1ccc(Br)cc1S(=O)(=O)n1ccnc1	1.3	-3%	-1%	-3	-3.4%	17	13%
Clc1cccc(OCCCCN2CCCCC2)c1	2.1	-13%	7%	-5	-3.7%	-12	10%
COc1cc(/C=C2/C(=N)N3C=CSC3=NC2=O)ccc1OCCCOc1cc(C)ccc1C	9.8	5%	u	5	-2.3%	17	5%
CC(C)CC1Nc2ccc(C(=O)NCCCN3CCOCC3)cc2NC1=O (stereo not drawn)	-0.4	18%	-6%	-2	x	20	2%
COc1cccc(NC(=O)[C@H](Cc2c[nH]c3ccccc23)NC(=O)[C@@H]2Cc3ccccc3CN2)c1	-0.1	13%	0%	-35	7.3%	x	x
O=C(COC(=O)c1cc(S(=O)(=O)Nc2ccccc2Cl)ccc1O)Nc1ccc(F)c(F)c1F	x	x	u	x	x	7	-2%
O=C(Nc1cccc2ccccc12)c1ccccc1Cl	-2.7	3%	8%	5	1.6%	27	-1%
COc1ccc(NC(=O)CCCNC(=O)Cn2cnc3sc(C)c(C)c3c2=O)c(OC)c1	-2.0	5%	7%	5	-1.2%	4	11%[15.4 µM]
CN(C)S(=O)(=O)c1cc(NC(=O)CN2CCNC(=O)C2)ccc1Cl	1.9	1%	8%	-2	-7.4%	-6	2%
COc1ccc(Nc2cc(C(=O)N3CCc4ccccc4C3)c3ccccc3n2)c(OC)c1	-2.9	3%	-25%	-1	-3.4%	-6	-19%
CC(=O)Nc1ccc(S(=O)(=O)N2CCN(C(=O)c3ccco3)CC2)cc1	-4.1	9%	10%	11	0.4%	x	19%
O=C(CSC1=NCCS1)NCc1ccco1	3.4	13%	5%	1	-0.3%	2	-19%
Cc1cnc(C(=O)NCCc2ccc(Cl)cc2)cn1	x	2%	2%	-20	-5.6%	12	u
COCCn1c(N2CCN(c3ccccc3)CC2)nc2c1c(=O)n(C)c(=O)n2C	0.2	18%	3%	6	x	0	17%[15.4 µM]
CCN(CC)c1nc(NN)nc(Nc2ccc(C)c(Cl)c2)n1	x	x	1%	x	1.1%	6	1%[15.4 µM]
COc1ccc(NC(=O)CCS(=O)(=O)c2ccc3c(c2)oc(=O)n3C)cc1OC	x	11%	5%	0	0.1%&1.7%	-6&-2	11%
CCCCN(CCCC)C(=O)c1c[nH]c2ccc(S(=O)(=O)Nc3cccc(Cl)c3C)cc2c1=O	x	x	x	7	-14%	1	x
CCS(=O)(=O)c1ccc(O)c(NC(=O)/C=C/c2ccccc2)c1	-0.9	8%	x	10	x	-8	-8%[15.4 µM]
Cc1ccc2c(c1)N(CC(=O)Nc1ccc3c(c1)OCCO3)C(=O)CO2	-0.5	1%	-4%	-4	1.0%	-1	-5%
COc1ccc2c(c1)-c1nc(NC(=O)c3cccs3)sc1CC2	1.5	-19%	u	-3	-7.0%	15	10%
O=C(COC(=O)c1cc(S(=O)(=O)N2CCOCC2)ccc1Cl)NCc1ccco1	x	x	2%	-6	-0.8%	3	-4%
CCOC(=O)Cn1cnc2scc(-c3ccc(C)cc3)c2c1=O	-2.3	-4%	-4%	8	x	1	-12%
COc1cc(OC)cc(C(=O)NC(=S)Nc2ccc(NC(=O)c3ccco3)cc2)c1	-1.9	-7%	1%	-19	u	-4	-16%
COc1ccc(C(CNC(=O)CN2C(=O)NC3(CC(C)CC(C)(C)C3)C2=O)N2CCOCC2)cc1 (stereo not drawn)	-1.7	12%	1%	-6	-0.8%	-4	-26%
c1ccc(CNc2c(-c3cccc(SC4CCCCC4)c3)nc3ccccn23)cc1	x	x	u	x	3.7%	29	x
O=C(NCCC1=CCCCC1)C1CCN(S(=O)(=O)c2cccc3nsnc23)CC1	-0.8	16%	-4%	-2	-1.7%	-6	-4%
Cc1ccc(-n2nc(C(=O)O)c(C)c(C#N)c2=O)cc1Cl	-2.6	7%	-3%	2	x	-10	-50%[inhibitor]
O=C(c1cc2n(n1)C(C(F)(F)F)CC(c1ccc(Cl)cc1)N2)N1CCCC1 (stereo not drawn)	26	10%	-2%	u	-4.7%	6	11%
O=C(Nc1ccc([N+](=O)[O-])cn1)c1cc(-c2cccc(Cl)c2)nc2ccccc12	2.3	12%	-8%	-7	-1.2%	23	-13%
COCCN(Cc1nc2ccccc2c(=O)[nH]1)C(=O)c1cccc(S(=O)(=O)N2CCCC2)c1	x	x	3%	1	-4.4%	-5	u
Cc1cc(OC(=O)c2ccccc2C(F)(F)F)c([N+](=O)[O-])c(=O)[nH]1	4.8	18%	7%	16	1.9%	-13	5%
CCOc1ccc(NC(=O)N2CCc3ccccc3C2)cc1	0.0	17%	8%	-5	1.3%	-13	-5%
CC(C)Oc1ccc(C(=O)NCc2cccs2)cc1	0.5	3%	1%	1	-1.6%	-6	0%
CCCOP(=O)(OCCC)c1c([N+](=O)[O-])cc(C(F)(F)F)cc1[N+](=O)[O-]	1.5	2%	-3%[15.4 µM]	-3	-2.3%	-13	-21%
COc1ccc(Nc2ncc(C(=O)N3CCN(c4ccc(F)cc4)CC3)c3ccccc23)cc1	-0.6	11%	-19%	0	-23%&-12%	18&61	0%
Cc1ccc(NC(=O)/C(Cl)=C\c2ccccc2)cc1	1.9	-13%	-2%	-2	x	52	-10%[15.4 µM]
Cc1ccc(-c2cc(C(F)(F)F)nc(SCC(=O)c3cccc([N+](=O)[O-])c3)n2)cc1	0.7	-2%	-4%	11	-0.6%	17	-53%[inhibitor]
COc1cc(-c2nc3ccccn3c2/N=C/c2ccc(F)cc2)ccc1O	-1.0	50µM*	-24%	-4	x	3	1%
CCCc1ccc2oc(C(=O)NCCc3cnn(C)c3)c(C)c2c1	x	5%	-14%	-11	-1.0%	-4	-4%
CC(=O)N1CCN(c2c(F)c(F)c(C(F)(F)F)c(F)c2F)CC1	-10	-6%	3%	-2	-2.7%	7	3%[15.4 µM]
CCOC(=O)c1c(NC(=S)Nc2ccc(Cl)cc2)sc(C)c1C	-1.3	-8%	-10%	5	-1.1%	-11	-7%
O=C(Nc1cccc([N+](=O)[O-])c1)c1cc(S(=O)(=O)Nc2ccccn2)ccc1Cl	0.3	4%	-18%	2	-2.9%	0	-3%
COc1ccc2[nH]c3c(c2c1)CCN1C(=O)C(CC(=O)NCCc2ccccn2)C[C@H](C(=O)N2CCCCC2)[C@@]31CCc1ccccc1 (stereo partly drawn)	x	x	-14%	x	-1.4%	-10	x
CCOC(=O)N1CCN(C(=O)c2ccccc2NC(=O)c2ccc(Br)cc2)CC1	3.1	3%	u	-5	-1.6%	23	-26%
(further entries)
SMILES	Menin-MLL FL inh	Sfp inh	gsp antag	TRPV1 potentiator	ClpP mod	TRPML1 blocker	gsp ag
O=C(COc1ccc2c(-c3ccccc3)cc(=O)oc2c1)Nc1ccc(CN2CCOCC2)cc1	-0.9	-2%	-5%	10	-7.4%	7	-44%[inhibitor]
N#CCCn1cc(C(N)=O)c(-c2ccc3ccccc3c2)n1	3.2	15%	6%	0	-6.7%	-3	-10%[15.4 µM]
CCc1c(C)sc(NC(=O)c2ccco2)c1C#N	u	-2%	-8%	-24	-5.1%	-16	-65%[inhibitor]
O=C(CSc1n[nH]c(=O)[nH]c1=O)Nc1ccc(SC(F)F)cc1	x	x	-1%	x	-2.0%	7	2%[15.4 µM]
O=C(NCc1ccccc1Cl)c1ccccc1CCc1ccccc1	-0.3	-2%	-19%	-17	0.2%	-9	-82%[inhibitor]
CCOc1cc(CNn2nnnc2N)ccc1OCC(=O)NC(C)(C)C	-0.1	9%	-2%	12	-2.3%	-9	-4%
Cc1ccc(SCC(=O)NNC(=O)c2ccccc2)c(C)c1	2.6	-1%	6%	8	x	1	-27%
